Bfl-1 A1 inh = inhibitors of the anti-apoptotic protein A1, read as caspase activation | AID 2462 | hit rate 0.066% among 330,000 | caspase activation, % (test concentration not listed) | MEF A1-2A-BIM cells, Caspase-Glo 3/7 luminescence, 3 h; percent of clofoctol response, vehicle zero;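 active = over half of replicate activation scores above 10%, or exactly half above 10 with the replicate mean above 10; inconclusive = replicate mean below 10 yet half the replicates above 10; inactive = over half of replicates below 10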;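 also: wells of about 30 µL received 50 nL stock; many hits fall short of the cut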
LANA-H2A inh = blocks KSHV LANA binding to histone H2A/H2B; Q9QR71; cell-free LANA-H2A/H2B peptide, fluorescence polarization; inhibition, % (concentration not given with the values); hit rate 0.6% among 320,000; in the data active = inhibition mostly above about 10%, no sharp cut-off; inactive = mostly below about 6.7%;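 also: stock transfer was 7.5 nL into about 10 µL; 0% = median of vehicle wells and 100% = median of positive control wells; one replicate is shown; the record names a cut of 25% in any replicate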
Beta apoptosis = blocks beta cell apoptosis; hit rate 0.8% among 300,000; protection from apoptosis, % (test concentration not listed); INS-1E cytokine-induced death, ATP luminescence, 48 h; percent of positive-control rescue, neutral wells zero;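 active = all replicates at 75% or more, or half of them and the mean; inconclusive = half reach 75% but not the mean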;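 also: 0% = cytokine-treated negative control wells and 100% = positive control rescue; higher means more ATP so stronger rescue from cytokine killing; wells of about 40 µL received 100 nL stock; the first replicate is given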
RanGTP-Imp inh = disruptors of Ran-importin-beta complex formation – biochemical, FRET, CFP-Ran, YFP-importin-beta, homogeneous, primary screen; inhibition, % (no concentration beside the values); hit rate 1.1% among 300,000; cell-free CFP-Ran/YFP-importin-beta FRET ratio;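 active = most replicates above 15%; inconclusive = exactly half above 15%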;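 also: 0% = DMSO wells and 100% = Ran loaded with GDP instead of GTP; wells of about 40 µL received 100 nL stock; the first replicate is given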
T cruzi repl = T. cruzi replication inhibition; T. cruzi beta-gal in NIH3T3, luminescence, 90 h; inhibition, % (concentration not given with the values); hit rate 1.4% among 300,000; AID 1885;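 active = mean inhibition across valid replicates above about 55%, limit read from the data; inconclusive = mean below that limit but half or more replicates reach it; inactive = mean below it, under half of replicates reach it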;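 also: signal also drops with host cell toxicity which is not excluded here; 0% = plate median of DMSO wells and 100% = zero luminescence signal; higher percent means less beta-gal luminescence so fewer parasites; stock transfer was 50 nL into about 50 µL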
Calb FLC = affects C. albicans growth with fluconazole; C. albicans CaCi-2 (fluconazole-resistant clinical isolate) + fluconazole, Alamar Blue growth, 48 h; growth inhibition, % (concentration not given with the values); hit rate 0.57% among 300,000; AID 1979;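 active = most replicates above 75%; inconclusive = exactly half above 75%; inactive = most below 75%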;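 also: all wells also contain fluconazole at 8 µg/ml as a sub-toxic cotreatment; 0% = median of DMSO wells and 100% = median of geldanamycin control wells; wells of about 8 µL received 7.5 nL stock; the first replicate is given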
Vif TR-FRET = inhibitors of Vif binding to APOBEC3G peptide, primary screen, biochemical, TR-FRET, GST-Vif 1-94, biotin-A3G peptide, dose response retest (AID 1117319). TR-FRET GST-Vif / biotin-A3G peptide binding; higher % means a stronger effect; test concentration not given here; strong numbers were not always called active. one-dose inhibition, %; IC50 in µM for titrated hits. hit rate 0.57% among 260,000;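 active = above the screen mean plus three standard deviations and confirmed in dose response; inconclusive = results disagree or hit not tested in dose response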;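 also: Vif residues 1-94 fused to GST binding biotinylated APOBEC3G peptide 110-148; 0% = full assay without inhibitor and 100% = GST in place of GST-Vif; retest series ran down from 100 µM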
AF4-AF9 inh = MLL-AF4/AF9 protein interaction inhibition; P42568; AlphaScreen, biotin-AF4 peptide binding to FLAG-AF9; inhibition, % at 10 µM; hit rate 0.47% among 350,000; AID 651704;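 active = every replicate reaching a set inhibition limit, whatever the replicate mean, cut at about 25% in these data; inconclusive = mean inhibition reaches that limit but some replicates miss it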;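 also: 0% = plate neutral control median and 100% = total signal loss; the record names both 10 and 1 µM as test concentration; the first replicate is given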
Target sequence (P42568 whole entry, looked up): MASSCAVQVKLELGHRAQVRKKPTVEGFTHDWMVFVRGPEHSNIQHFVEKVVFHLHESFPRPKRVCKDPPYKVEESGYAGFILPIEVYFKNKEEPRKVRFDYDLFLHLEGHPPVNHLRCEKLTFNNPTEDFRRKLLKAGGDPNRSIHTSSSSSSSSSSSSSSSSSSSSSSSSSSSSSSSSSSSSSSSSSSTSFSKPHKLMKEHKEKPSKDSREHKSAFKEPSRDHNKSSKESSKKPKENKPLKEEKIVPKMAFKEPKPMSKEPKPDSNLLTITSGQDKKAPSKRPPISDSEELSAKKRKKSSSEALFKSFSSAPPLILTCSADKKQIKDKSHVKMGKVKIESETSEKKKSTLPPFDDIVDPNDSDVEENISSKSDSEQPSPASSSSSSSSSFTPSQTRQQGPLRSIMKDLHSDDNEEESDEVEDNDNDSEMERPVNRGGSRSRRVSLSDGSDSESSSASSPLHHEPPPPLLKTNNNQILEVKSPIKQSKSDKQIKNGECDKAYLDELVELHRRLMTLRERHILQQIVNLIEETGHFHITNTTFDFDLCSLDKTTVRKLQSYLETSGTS
The depositor's hits bear a star; ? = inconclusive; · = not tested or not shown; & = joins results of further samples.

Structure	Bfl-1 A1 inh	LANA-H2A inh	Beta apoptosis	RanGTP-Imp inh	T cruzi repl	Calb FLC	Vif TR-FRET	AF4-AF9 inh
Cc1ccc2nc(CSc3nc(C)nc4c3oc3ccccc34)[nH]c2c1	-0.1	-3.4	11	·	·	·	·	0.4
CCOC(=O)c1cccc(NC(=O)CCn2cccc2)c1	0.5	-3.5	-5	-6.1	-5	-5	?	·
CC(C)COc1ccc(C(=O)Nc2cc(S(=O)(=O)N3CCOCC3)ccc2N2CCCC2)cc1	0.4	1.8	2	·	·	·	-6%	-3.7
CCOC(=O)Cn1nnc(-c2ccc(S(C)(=O)=O)cc2)n1	2.2	0.6	-2	-6.6	-4	5	-5%	·
Cc1oc(-c2cc(F)ccc2F)nc1CN1CCCN(C(=O)c2ccco2)CC1	-0.3	0.2	-2	0.6	12	-6	4%	1.5
Cc1cc(-c2nnc(SCC(=O)N3C(C)CCCC3C)o2)no1 (stereo not given)	0.0	-4.9	-1	6.8	5	-2	7%	·
NC(=O)N/N=C/c1cc(F)cc(F)c1	1.1	0.7	-10	-2.6	23	-2	·	·
O=C(COc1ccc(-c2ccccc2)cc1)N1CCN(C(=O)c2cccnc2)CC1	-1.2	1.5	-7	0.3	-8	1	1%	·
CCOc1ccc(NS(=O)(=O)c2cc(C(=O)NCCN3CCOCC3)ccc2C)cc1	0.8	0.9	-1	·	·	·	-8%	-1.1
Cc1cccc(N(CC(=O)NC2CC2)S(=O)(=O)c2ccc(Cl)cc2)c1	0.1	-0.6	-3	-0.1	4	-5	·	0.1
O=CN1CCN(C(=O)CN2C(=O)c3ccccc3C2=O)CC1	1.3	0.7	-2	-2.0	0	-1	-1%	·
COc1ccc(C)cc1NC(=O)CC1COc2ccccc2O1 (stereo not given)	0.3	1.4	-5	0.3	5	-14	-6%	-0.4
COc1ccc2cc(CN(CCO)C(=O)c3ccccc3F)c(=O)[nH]c2c1	-0.2	-0.2	-1	4.6	-14	10	-1%	·
NC(=O)/C(=C\c1ccco1)NC(=O)c1ccc(Br)o1	0.1	2.2	·	-0.6	1	-3	·	-3.6
CN1C(=O)c2cccc3c(S(=O)(=O)Nc4ccccc4F)ccc1c23	1.0	2.5	-2	-2.6	-1	16	·	-1.9
COCc1cc(C)nc(OCC(=O)N/N=C/c2ccc(-c3cc([N+](=O)[O-])ccc3Cl)o2)c1C#N	1.2	-1.2	12	1.5	-5	19	5%	-0.5
O=C(N1CCCCC1)N1CCC(c2nc3ccccc3[nH]2)CC1	-0.5	0.1	3	-1.5	-21	-5	?	-30
Cc1nn(-c2ccccc2)c2[nH]c(=O)c(CNCC3CCCO3)cc12 (stereo not given)	0.3	-0.6	-3	-3.4	-11	0	28%	·
O=C(Nc1ccccc1)[C@@H]1[C@@H]2C(=O)N(c3ccc(F)cc3)C(=O)[C@@H]2[C@H]2C=CC=NN21	-0.4	0.4	-3	0.3	-37	0	·	·
O=C(COc1ccc([N+](=O)[O-])cc1)Nc1cc(S(=O)(=O)N2CCCCC2)ccc1N1CCCCC1	0.5	0.6	5	-2.7	26	-4	2%	1.0
CCOC(=O)Cn1nnnc1CN(CCc1ccccc1)Cc1cc2cc(CC)ccc2[nH]c1=O	-0.8	1.6	2	5.3	9	-1	8%	·
CC(=O)c1cc(C#N)c(N2CCOCC2)nc1C	1.3	-0.4	-4	?	-6	-6	6%	-0.7
CN(CC(CC(=O)O)c1ccccc1)S(=O)(=O)c1ccc(Br)cc1 (stereo not given)	0.5	2.6	0	3.3	-1	6	-1%	-0.4
CCC(=O)Nc1ccc(Oc2ccc3c(c2)C(=O)N(c2ccc(O)cc2)C3=O)cc1	-1.1	6.4	0	-1.4	-4	-5	-2%	·
O=C(NCC(c1cccs1)N1CCOCC1)c1cnc(Cl)c(Cl)c1 (stereo not given)	-0.5	-0.4	2	·	·	·	·	0.9
Cc1cc(N2C(=O)CC(N3CCN(c4ccc(C(=O)c5cccs5)cc4)CC3)C2=O)no1 (stereo not given)	-0.7	0.5	-3	?	2	-3	0%&-2%	·
Nc1nc(Cl)cc(Sc2ccc(F)cc2)n1	-2.4	-4.3	-2	-0.2	-8	-2	28%	·
COc1ccc(-c2cc(C(=O)NCC3CCCO3)c3cc(C)ccc3n2)cc1 (stereo not given)	-1.5	-0.1	-2	-1.2	2	11	0%	-1.4
O=C(Nc1ccccc1Oc1ccccc1)c1ccc(Br)o1	0.5	0.2	-4	-1.1	8	-5	-1%	·
CCOc1cc(NC(=O)c2cccs2)c(OCC)cc1NC(=O)CCC(=O)NCCN1CCOCC1	0.5	2.0	-7	0.9	5	-1	-13%	-4.0
COc1ccc(NC(=O)c2cc(-c3ccncc3)nc3ccccc23)c(OC)c1	-5.3	4.2	13	·	·	·	-8%	7.9
O=C(Nc1nncs1)C1(c2ccccc2)CCCC1	-0.5	-1.8	0	-3.2	-15	10	2%	·
CC(=O)c1cccc(NC(=O)C(C)OC(=O)CCn2c(C)csc2=O)c1 (stereo not given)	0.3	-3.2	-1	·	·	·	3%	0.4
Cc1ccc(Cl)cc1N1CCN(C(=O)c2cc3c(=O)[nH]c4ccccc4c3n2C)CC1	-0.3	-2.3	16	1.4	49	-3	-1%	·
O=c1[nH]c2cc3c(cc2cc1C(c1nnnn1Cc1ccccc1)N1CCCCCC1)OCCO3 (stereo not given)	0.6	0.0	-8	-9.4	16	2	10%	·
COc1ccc(-c2sc3cc(OC)c(OC)cc3c2C#CCCO)cc1	-0.9	-5.8	-1	·	·	·	·	0.6
CCN1C(=O)/C(=C\N2CCN(c3cccc(Cl)c3)CC2)SC1=S	-0.6	-2.4	23	-1.3	-7	10	-29%	·
O=C(CNC(=O)c1ccc(S(=O)(=O)N2CCCC2)cc1)N/N=C/c1c(Cl)cccc1Cl	0.9	-0.5	4	5.0	-2	3	-6%	·
C/C(=N\NC(=O)c1ccncc1)c1cccs1	-3.0	2.1	-3	-1.2	-11	-1	?	-6.2
CCOc1ccc(-c2nc(CN3CCCCC3CCn3cccn3)c(C)o2)cc1 (stereo not given)	-0.1	2.5	-2	1.9	11	-7	79%	1.7
COc1ccc(OC)c(NC(=O)Cn2cc(C(=O)c3ccco3)c3ccccc32)c1	1.1	-0.8	-5	1.4	1	16	13%	·
Cc1ccccc1N=C/C=C1\N(C)c2ccccc2C1(C)C	0.0	-0.3	17	0.0	7	-3	6%	·
O=C(O)CCc1ccc(-c2ccc(Cl)cc2)n1Cc1ccco1	0.2	-4.5	-2	1.5	-11	26	19%	·
C=CCNC(=O)c1c2c(nc3ccccc13)-c1ccccc1CC2	0.2	4.2	4	-0.9	3	-15	8%	·
COc1ccc(CCC(=O)Nc2ccc(Cn3ccnc3)cc2)cc1	-1.1	0.3	-2	5.9	-16	-2	·	4.4
O=C(CNC(=O)c1ccccc1)OCC(=O)c1c[nH]c2ccccc12	1.1	-4.6	-1	·	·	·	-11%	11
Cc1ccc(N2C(=O)N(CC(=O)c3cc(C)ccc3C)C(=O)C2C)cc1 (stereo not given)	0.0	3.0	-6	2.6	0	?	·	·
Nc1ccc(N2CCOCC2)c(S(=O)(=O)Nc2cc(Cl)ccc2Cl)c1	0.0	-0.6	-7	?	-6	-5	28%	3.6
O=C(N/N=C/c1ccccc1)C(O)c1ccccc1 (stereo not given)	1.1	0.3	·	-1.2	4	-2	·	1.9
Cc1ccc2nc3c(cc(C(=O)NC4CCCC4)c(=N)n3C3CCCCC3)c(=O)n2c1	-0.4	2.3	8	182*	41	-4	7%	0.4
COc1cc2c(=O)n(CC3CCCO3)c(=O)n(CC(=O)Nc3ccccc3)c2cc1OC (stereo not given)	-0.3	1.0	1	0.7	-16	0	·	-3.5
Cc1cc(C(=O)N[C@@H](c2ccccc2)[C@]2(C)C[C@H]2[C@@H](C)C(=O)Nc2ccc3ccccc3c2)no1	0.6	-2.2	-2	1.6	7	-3	-2%	1.2
Cc1ccc(C(=O)Nc2cccc(C(=O)N3CCN(C)CC3)c2)cc1	0.4	1.9	-2	5.6	9	-10	-2%	·
COc1ccc(OC)c(NC(=O)Cc2csc(NC(=O)Nc3ccccc3OC)n2)c1	-0.7	-4.4	·	2.7	-5	-14	-5%	3.4
NS(=O)(=O)c1ccc(NC(=O)COC(=O)C2CC(=O)N(Cc3ccccc3)C2)cc1 (stereo not given)	0.1	6.8	-3	2.7	-3	-3	22%	-0.9
O=[N+]([O-])c1ccc2nc(-c3ccccc3)cc(-c3ccccc3)c2c1	0.6	-2.2	0	?	13	4	-10%	·
CCOc1ccc(C(=O)Nc2ccc(C(=O)N3CCOCC3)cc2)c(OCC)c1	-0.3	3.4	-4	-2.3	5	17	-4%	-1.6
Cc1ccc(NS(=O)(=O)c2c(C)[nH]c(=O)[nH]c2=O)c(Br)c1	-0.1	-7.8	1	6.0	-22	8	-3%	-1.4
CCC/C(=N\NC(=O)CCC(=O)NCc1ccccc1)c1ccccc1	0.1	1.3	·	-2.3	-4	-2	20%	-0.4
C[C@@H]1CN([C@H](C)CO)C(=O)c2cc(NS(=O)(=O)c3cccs3)ccc2O[C@H]1CN(C)Cc1ccccc1	-0.7	-1.9	2	·	·	·	·	-1.3&-4.6

Next section.
Structure	Bfl-1 A1 inh	LANA-H2A inh	Beta apoptosis	RanGTP-Imp inh	T cruzi repl	Calb FLC	Vif TR-FRET	AF4-AF9 inh
Cc1cc(C(=O)O)cc(Br)c1N	0.7	-7.1	0	2.4	-8	-3	0%	-8.3
CCNc1nc(NCC)nc(NC(N)=S)n1	1.0	0.6	3	-0.9	3	5	-12%	-2.8
COc1ccc(C2NN=C(c3ccc(C)cc3)S2)cc1 (stereo not given)	-1.9	-2.0	2	?	-1	-11	-1%	8.6
Cc1c(NC(=O)COc2ncnc3ccccc23)c(=O)n(-c2ccccc2)n1C	-0.2	5.1	-3	3.3	-14	-11	2%	·
Cn1c(=O)c2c(nc(CN3CCOCC3)n2CC(=O)c2ccccc2)n(C)c1=O	-0.4	-10	-1	2.7	-4	8	·	·
COc1cccc(/C=C/C(=O)NCc2ccc3c(c2)OCO3)c1	-0.5	-8.0	4	5.4	-9	-30	·	-0.1
COc1nc2c(s1)C(=O)NCCC2	-0.4	-2.3	-7	-0.6	3	2	0%	·
O=C(COc1ccccc1)NC1CCCCC1	0.0	0.7	0	7.3	-10	-2	-13%	·
CCOC(=O)CCC(=O)NNC(=O)c1ccc(NC(=O)c2ccccc2)cc1	-1.0	1.0	0	1.2	-4	18	-2%	-2.7
COc1ccc(NC(=O)C2CCCC2)cn1	0.5	1.1	-7	-2.9	-4	-2	2%	-1.0
COc1ccc(/C=C(\NC(=O)c2ccccc2Cl)C(=O)NCCCC(=O)O)cc1	·	·	·	1.7	-4	0	-7%	0.2
CC(=O)NC(CCS(C)(=O)=O)C(=O)Nc1ccc2c(c1)OCCO2 (stereo not given)	-0.3	-1.7	2	1.7	-12	28	7%	-3.6
Nc1c(Cl)cnn(-c2ccccc2)c1=O	0.0	-0.5	-4	0.5	-35	-7	·	-11

Screens deposited in PubChem BioAssay by several laboratories.
